Screening data deposited in PubChem BioAssay by National Center for Advancing Translational Sciences (NCATS).
Cruzain inh noDet: qHTS Assay for Promiscuous and Specific Inhibitors of Cruzain (without detergent) | Cruzipain (Trypanosoma cruzi), P25779 | purified cruzain, Z-FR-AMC fluorescence, no detergent | AID 1476, 2009 | Potency, µM, for inactives: max response, negative = inhibition, usual class: inhibitors | 200,000 tested, 2.3% active;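 note: plate controls were enzyme without inhibitor for no effect and buffer without enzyme for full effect; nearly all actives have a fitted effect of over 40% in size; top concentration of the series not given in the record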
Target sequence (P25779 123-467 limits assumed): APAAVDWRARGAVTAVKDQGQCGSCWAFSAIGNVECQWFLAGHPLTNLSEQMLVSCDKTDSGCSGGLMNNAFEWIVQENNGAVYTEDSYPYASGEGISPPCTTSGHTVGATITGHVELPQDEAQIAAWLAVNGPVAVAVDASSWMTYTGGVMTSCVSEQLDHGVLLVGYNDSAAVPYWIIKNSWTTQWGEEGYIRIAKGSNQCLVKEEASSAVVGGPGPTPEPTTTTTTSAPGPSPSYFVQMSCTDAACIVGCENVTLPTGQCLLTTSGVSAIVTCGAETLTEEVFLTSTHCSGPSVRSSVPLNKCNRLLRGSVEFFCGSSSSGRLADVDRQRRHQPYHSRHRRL
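Detergent-free condition (0.00005% Triton X-100) in acetate buffer pH 5.5 with DTT. 1.5 nM enzyme and compound were pre-mixed 15 min, then 2 uM Z-FR-AMC substrate added; reaction progress from fluorescence change between first and third reads (60 s).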
NS1 inh: qHTS Assay for Inhibitors of Influenza NS1 Protein Function | S. cerevisiae slowed by influenza A NS1, growth recovery by OD600 | Potency, µM (titrated, usually from 46.1 µM), for inactives: top-dose activity, positive = more growth | 270,000 tested, 0.4% active | AID 2326, 2010; active means well fitted rising curve with a large enough effect; inconclusive means small, poorly fitted or top-dose-only effect; inactive means no such curve, though single readings can be large or run the other way; note: nearly all actives have a fitted effect of over 50% in size
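Recovery from NS1-induced slow growth read by OD600 in budding yeast switched to galactose assay medium (pH 6.0, -URA) at 1:100 dilution. Compound 23 nl per well; the matching strain lacking NS1 serves as control.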
LASV entry inh: qHTS for Inhibitors of binding or entry into cells for Lassa Virus; Lassa virus pseudotype entry inhibition, cell reporter; control for the full effect not named in the record; Potency, µM (doses to about 37.9 µM), inactives show at the highest dose activity change, negative = inhibition, actives largely listed as inhibitors; 300,000 tested, 1.2% active; AID 540256, 2011; active means well fitted inhibition curve with a large enough effect; inconclusive means small, poorly fitted or top-dose-only effect, or effect the other way; inactive means flat fitted curve, though single readings scatter; tested in HEK293 cells; note: % is set by controls: 0 for no effect and ±100 for the full control effect; nearly all actives have a fitted effect of over 50% in size; luciferase read-out
Cruzain Triton: qHTS Assay for Promiscuous and Specific Inhibitors of Cruzain (with detergent) | Cruzipain (Trypanosoma cruzi), P25779 | purified cruzain, Z-FR-AMC fluorescence, 0.01% Triton | Potency, µM, for inactives: max response, negative = inhibition, hits mostly inhibitors | 200,000 tested, 0.43% active | AID 1478, 2009;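 note: plate controls were neutral wells for no effect and buffer without enzyme for full effect; nearly all actives have a fitted effect of over 40% in size; top concentration of the series not given in the record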
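Cruzain (1.5 nM) preincubated 15 min at RT with compound in 100 mM sodium acetate pH 5.5, 5 mM DTT, 0.01% Triton X-100. Reaction started with 2 uM Z-FR-AMC; AMC fluorescence (ex 360/em 450 nm) change over 60 s gave rate.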
Marburg entry inh: qHTS for inhibitors of binding or entry into cells for Marburg Virus | Marburg virus pseudotyped entry inhibition, cell reporter; control for the full effect not named in the record; about a third of the inactives were read at about 46 µM | Potency, µM (doses to about 37.8 µM), inactives show at the highest dose activity change, negative = inhibition, hits mostly inhibitors | 300,000 tested, 1.8% active; active = well fitted inhibition curve with a large enough effect; inconclusive = small, poorly fitted or top-dose-only effect, or effect the other way; inactive = flat fitted curve, though single readings scatter; tested in HEK293 cells; about a fifth of its hits are not listed in these tables; note: % is set by controls: 0 for no effect and ±100 for the full control effect; luciferase read-out
SARS PLP yeast: qHTS of Yeast-based Assay for SARS-CoV PLP; S. cerevisiae expressing SARS-CoV PLpro, growth rescue; control for the full effect not named in the record; Potency, µM (titrated, usually from 32.9 µM), for the others: at the top dose activity, positive = growth rescue; 330,000 tested, 0.19% active; AID 485353, 2010; active means well fitted rising curve with a large enough effect; inconclusive means small, poorly fitted or top-dose-only effect; inactive means no such curve, though single readings can be large or run the other way; note: 0% is about no effect; nearly all actives have a fitted effect of over 55% in size; growth read by luminescence after 48 h
RE007 growth inh: qHTS Assay for Inhibitors of the HIV-1 protein Vpr; S. pombe RE007 Vpr strain, BacTiter-Glo ATP luminescence, 24 h; control for the full effect not named in the record; Potency, µM (series often up to 92.2 µM), for the others: top-dose activity change, negative = less growth; 360,000 tested, 0.21% active; active = well fitted falling curve with a large enough effect; inconclusive = small, poorly fitted or top-dose-only effect; inactive = no such curve, though single readings can be large or run the other way;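 note: % is set by controls: 0 for no effect and ±100 for the full control effect; nearly all actives have a fitted effect of over 50% in size; the assay follows cell death caused by Vpr and the record does not say whether a fall means rescue or toxicity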
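Fission yeast strain RE007, carrying one chromosomally integrated HIV-1 vpr copy, was seeded at OD 0.01 in PMG+AL medium with 23 nL pinned compound. After 24 h at 30 °C and 99% humidity, viability was read by BacTiter-Glo luminescence.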
StopGo reporter: High Throughput Screening for Foot and Mouth Disease Virus Antivirals; human cells with a luciferase reporter of 2A StopGo recoding; control for the full effect not named in the record; Potency, µM (doses to about 57.9 µM), for inactives: top-dose signal change, negative = less light; 410,000 tested, 1.2% active; AID 1159524, 2015; active = well fitted falling curve with a large enough effect; inconclusive = small, poorly fitted or top-dose-only effect; inactive = no such curve, though single readings can be large or run the other way; tested in HEK293T cells; note: % is set by controls: 0 for no effect and ±100 for the full control effect; nearly all actives have a fitted effect of over 45% in size; luciferase light after 4 h
Starred values were filed as active, the others as inactive; ? = inconclusive; nt = no result given; & = joins results of further samples; [ ] = remark or other dose. Unless noted, calls come from the whole dose curve; as a rule, active = well fitted curve in the direction sought with a large enough effect; inconclusive = small, poorly fitted or top-dose-only effect, or another doubt; inactive = no such curve, though single readings can be large; an effect the other way counts as inactive or inconclusive. Potency is the fitted concentration of half-maximal effect.

The line under a structure holds: LASV entry inh	SARS PLP yeast	NS1 inh	RE007 growth inh	Marburg entry inh	Cruzain inh noDet	Cruzain Triton	StopGo reporter
1: Cc1ccccc1Nc1c(-c2c[nH]c3ccccc23)nc2ccccn12
    29%[46.1 µM]	nt	nt	nt	?	9%	-7.4%	-3%
2: Cc1cc(/C=C2\SC(=S)NC2=O)c(C)n1-c1ccccc1
    ?	-1%	1%	11%	?	nt	nt	5%
3: CC(=O)N1N=C(c2cccs2)CC1c1ccc(C)o1 (stereo not drawn)
    9%	1%	-9%	-10%	23%[46.1 µM]	nt	nt	9%
4: Cn1nnc(NC(=S)NC(=O)/C=C/c2ccco2)n1
    0%	6%	7%	-9%	15%[46.1 µM]	nt	nt	-20%
5: CNC(=O)/C=C/c1cccc(C(F)(F)F)c1
    9%	-2%	6%	12%	-2%	-7%	3.8%	-4%
6: CCC(C)(C(=O)Nc1ccc(OC)cc1)N(C)C(=O)Cn1nnnc1N (stereo not drawn)
    -3%[46.1 µM]	1%	5%	-7%	-6%[46.1 µM]	nt	nt	3%
7: Cn1c(Cn2c(=O)sc3ccccc32)nnc1SCC(=O)NCc1ccccc1Cl
    nt	-3%	-11%	3%	nt	-7%	-0.9%	-13%
8: O=C1CCc2cc(S(=O)(=O)N3CCCC3C(=O)NC3CCCCCCC3)ccc2N1 (stereo not drawn)
    nt	-1%	0%	14%	-5%	2%	3.0%	?
9: O=C(Nc1nnc(SCC(=O)N2CCCCC2)s1)c1ccccc1F
    ?	-1%	-17%	-10%	?	nt	nt	18%
10: Cc1cccc(NC(=O)CN2C(=O)CCSc3ccc(S(=O)(=O)N4CCOCC4)cc32)c1C
    nt	-4%	-2%	5%	nt	nt	nt	-8%
11: O=C(CNC(=O)c1ccco1)N/N=C/c1cc(Br)ccc1O
    nt	-1%	0%	2%	2µM*	nt	nt	6%
12: Cc1ccc(-c2nnn(CC(=O)NC3CC4CCC3C4)n2)cc1 (stereo not drawn)
    -4%	-12%	-16%	-19%	?	-5%	9.4%	2%
13: O=C(COC(=O)c1ccccc1NC(=O)C1CC1)c1ccc2c(c1)OCCO2
    nt	5%	3%	nt	-4%	12%	-6.5%	nt
14: COc1cccc(C(=O)N2CCN=C2SCc2cccnc2)c1OC
    nt	5%	1.6µM*	-16%	nt	6%	0.1%	-9%
15: O=S(=O)(c1ccc(Br)cc1)c1nnn2c1nc(NCc1cccs1)c1sccc12
    1%[46.1 µM]	nt	nt	nt	nt	-5%	-3.7%	0%
16: COc1ccc(C2=NOC(C(=O)Nc3ccc4c(c3)OCO4)C2)cc1OC (stereo not drawn)
    12%[46.1 µM]	-3%	nt	1%	-11%[46.1 µM]	nt	nt	5%
17: CC(/C=N/NC(=O)Cn1cnc2c1c(=O)n(C)c(=O)n2C)=C\c1ccccc1
    -4%	13%	-3%	14%	?	4%	-7.0%	-27%
18: Cc1ccc(C(=O)NCC(=O)OC(C)C(=O)NC2CCCc3ccccc32)cc1 (stereo not drawn)
    10%	2%	nt	4%	2%	nt	nt	-5%
19: CCN(CC)CCOC(=O)c1ccc(NC(=O)c2cccc(C)c2[N+](=O)[O-])cc1
    -2%	-7%	nt	-2%	-19%	nt	nt	-9%
20: Cc1ccc(CSc2nnc(-c3ccncc3)n2N)cc1
    11%	-2%	1%	-25%	3%	nt	nt	-7%

Additional structures:
The line under a structure holds: LASV entry inh	SARS PLP yeast	NS1 inh	RE007 growth inh	Marburg entry inh	Cruzain inh noDet	Cruzain Triton	StopGo reporter
21: Cc1ccc(C(=O)Oc2ccccc2N2C(=O)C3C4CCC(C4)C3C2=O)cc1 (stereo not drawn)
    -15%	?	-24%	-8%	7%	6%	1.2%	3%
22: Cn1c(=O)c2c(nc(N3CCCCCC3)n2CC(=O)c2ccccc2)n(C)c1=O
    -1%	2%	-12%	-13%	-1%	12%	1.3%	-9%
23: COCCNC(=S)N1CCN(c2ccc(Cl)cc2)CC1
    1%	-1%	nt	-11%	-5%	nt	nt	-8%
24: CC(C)Cn1cc(C(=O)NCCCN2CCCC2=O)c2c3ccccc3n(C)c2c1=O
    -2%	-1%	-2%	-2%	?	?	-5.1%	16%
25: Cn1c(SC2CCCCC2=O)nnc1-c1ccncc1 (stereo not drawn)
    5%	2%	10%	1%	?	-7%	1.8%	5%
26: CCCCn1c(=N)n(CC(O)COc2ccc(C)cc2)c2ccccc21 (stereo not drawn)
    ?	2%	-11%	5%[3.69 µM]	?	6%	2.9%	?
27: C=CCOc1ccc(CNCC2CCCO2)cc1 (stereo not drawn)
    19%[46.1 µM]	21%	1%	-18%	3%[46.1 µM]	nt	nt	24%
28: Cc1ccc(SC(C)c2nc(-c3cccnc3)no2)cc1 (stereo not drawn)
    2%	-18%	-81%	-9%	-30%	2%	-2.2%	-9%
29: Cc1cc(C)c(C(=O)NC2CCCc3c2cnn3-c2ccc(C)c(C)c2)c(=O)[nH]1 (stereo not drawn)
    15%	1%	-4%	1%	?	nt	nt	-14%
30: COc1cc(OC)c(OC)cc1CN1CCN(Cc2cccn2C)CC1
    0%	7%	20%	-1%	21µM*	-4%	0.7%	-6%
31: Cc1ccccc1NS(=O)(=O)c1cc(C(N)=O)ccc1C
    -11%	0%	2%	22%	0%	0%	6.5%	nt
32: COc1ccccc1CN1CC(C(=O)N2CCN(c3ccc(F)cc3)CC2)CC1=O (stereo not drawn)
    3%	0%	-3%	6%	2%&-2%	?	6.6%	nt
33: CC(C)Oc1ccc(CNC(=S)N/N=C/c2cccnc2)cc1
    -24%	17%	13%	20%	-26%	0%	-3.7%	4%
34: O=C([C@H](Cc1ccccc1)NS(=O)(=O)c1ccc(Cl)cc1)N1CC[C@@]2(O)CCCC[C@H]2C1
    ?	3%	7%	19%	-27%	8%	2.0%	-18%
35: O=C(NCc1ccc2c(c1)OCO2)c1ccc(Cl)c(S(=O)(=O)NCc2ccccc2)c1
    2%	2%	0%	2%	-18%	?	-3.9%	40%[activator]
36: COc1ccc(CNCc2c(O)c(Cl)cc3c(C)c(C)c(=O)oc23)c(OC)c1
    12%	1%	1%	7%	-17%	nt	nt	-13%
37: CSc1nc(-c2ccc(Cl)cc2)nn1C(=O)c1ccccc1
    -3%	-33%	1%	-3%	25%	-4%	-5.1%	44%[activator]
38: OCC1(Cc2ccccc2C(F)(F)F)CCN(Cc2ccncc2)CC1
    0%	-2%	-5%	-4%	?	nt	nt	-25%
39: CCOC(=O)c1sc(=N)n(-c2ccc(OC)cc2)c1C
    ?	2%	-10%	2%	14%	-4%	-7.1%	34%[activator]
40: Cc1ccc(N(CC(O)CN(C)C)S(=O)(=O)c2ccccc2)cc1 (stereo not drawn)
    ?	8%	10%	3%	1%	3%	-5.2%	-20%

Additional structures:
The line under a structure holds: LASV entry inh	SARS PLP yeast	NS1 inh	RE007 growth inh	Marburg entry inh	Cruzain inh noDet	Cruzain Triton	StopGo reporter
41: CCc1ccc(CN(C)Cc2nc(Cc3ccc(OC)c(OC)c3)no2)nc1
    -21%	-1%	-4%	-14%	15%[46.1 µM]	nt	nt	?
42: CCOC(=O)c1cc(-c2ccco2)nc2c1c(C)nn2-c1ccccc1
    2%	7%	-4%	9%	-2%[46.1 µM]	-1%	-1.5%	-16%
43: C/C(=N\Nc1nc2ccccc2[nH]1)c1ccc2c(c1)OCCO2
    ?	3%	nt	8%	?	nt	nt	-24%
44: COc1ccc(C(=O)NCC2(c3ccccc3)CCCC2)c(OC)c1
    nt	-1%	-5%	-6%	nt	nt	nt	?
45: O=C1OC(c2ccccc2)(c2ccc(O)cc2)c2ccccc21 (stereo not drawn)
    -11%[46.1 µM]	nt	nt	-19%	?	nt	nt	-12%
46: CC1=C(C(=O)OCc2ccccc2)C(c2ccccc2[N+](=O)[O-])NC(=O)N1C (stereo not drawn)
    nt	-1%	15%	10%	nt	nt	nt	?
47: COc1ccc(CCC(=O)NNC(=O)c2ccccn2)cc1OC
    -16%	9%	nt	-5%	?	nt	nt	-20%
48: O=C(CN(C(=O)Cn1nnc(-c2cccs2)n1)c1ccc2c(c1)OCCO2)NCc1ccccc1
    -6%	-3%	?	0%	?	-16%	-7.1%	-13%
49: Cc1nn(-c2nc3ccccc3n2Cc2ccccc2)c2c1C(=O)CC(C)(C)C2
    ?	nt	-54%	18%	?	1%	-0.3%	?
50: Cc1ccc(NC(=O)C2CCCN(S(=O)(=O)c3ccc4[nH]c(=O)ccc4c3)C2)cc1C (stereo not drawn)
    -8%[46.1 µM]	-7%	-6%	-1%	nt	5%	0.9%	0%&3%
51: O=c1c2cccnc2n(Cc2cccc(F)c2)c(=O)n1Cc1ccc(F)cc1
    nt	nt	nt	nt	-1%[46.1 µM]	10%	-1.6%	-7%
52: COc1ccc(OC)c(NC(=O)CCN2CCN(c3ccccc3OC)CC2)c1
    nt	3%	7%	4%	nt	nt	nt	-15%
53: CC1CN(C(=O)COC(=O)c2cc([N+](=O)[O-])ccc2Cl)CC(C)O1 (stereo not drawn)
    14%[46.1 µM]	2%	0%	13%	18%[46.1 µM]	nt	nt	-22%
54: COc1cccc(C(=O)CN2CCC(NC(=O)NC3CCCCC3)CC2)c1
    -5%	1%	-7%	5%	-4%	-4%	0.0%	-5%
